gsp ag: agonists of gsp mutant (McCune-Albright syndrome) | gsp mutant cells, cAMP HTRF, 30 min; control for the full effect not named in the record | 0.13% of 340,000 active | Potency, µM (series often up to 76.9 µM), inactives show top-dose activation (cAMP increase), most hits filed as activators; active = well fitted activation curve with a large enough effect; inconclusive = small, poorly fitted or top-dose-only effect, or another doubt; inactive = no such curve, though single readings can be large or run the other way; cell line not stated here;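 further: phosphodiesterase inhibitor Ro 20-1724 added with compounds to block cAMP breakdown; potency means the concentration at half of the fitted maximal effect; nearly all actives have a fitted effect of over 60% in size; about a fifth of the inactives were tested at one dose only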
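Cells stably selected in G418 were plated at 2000/well, grown 16-24 hr, then given compounds in DMSO with the PDE inhibitor […] (300 uM solution added) for 30 min at 37C; cAMP was read by HTRF.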
TRPV1 PAM: enhances activation of the human vanilloid receptor TRPV1. Q8NER1. TRPV1-expressing cells, Fluo-8 calcium influx, capsaicin EC20 potentiation; host cell line not named in the record; control for the full effect not named in the record. potentiation, % at 8.33 µM. 0.02% of 320,000 active. AID 540277; active means potentiation above 80%; inconclusive means 30% to 80%; inactive means below 30%; further: 0% is about no effect
Target sequence (Q8NER1 whole entry, looked up): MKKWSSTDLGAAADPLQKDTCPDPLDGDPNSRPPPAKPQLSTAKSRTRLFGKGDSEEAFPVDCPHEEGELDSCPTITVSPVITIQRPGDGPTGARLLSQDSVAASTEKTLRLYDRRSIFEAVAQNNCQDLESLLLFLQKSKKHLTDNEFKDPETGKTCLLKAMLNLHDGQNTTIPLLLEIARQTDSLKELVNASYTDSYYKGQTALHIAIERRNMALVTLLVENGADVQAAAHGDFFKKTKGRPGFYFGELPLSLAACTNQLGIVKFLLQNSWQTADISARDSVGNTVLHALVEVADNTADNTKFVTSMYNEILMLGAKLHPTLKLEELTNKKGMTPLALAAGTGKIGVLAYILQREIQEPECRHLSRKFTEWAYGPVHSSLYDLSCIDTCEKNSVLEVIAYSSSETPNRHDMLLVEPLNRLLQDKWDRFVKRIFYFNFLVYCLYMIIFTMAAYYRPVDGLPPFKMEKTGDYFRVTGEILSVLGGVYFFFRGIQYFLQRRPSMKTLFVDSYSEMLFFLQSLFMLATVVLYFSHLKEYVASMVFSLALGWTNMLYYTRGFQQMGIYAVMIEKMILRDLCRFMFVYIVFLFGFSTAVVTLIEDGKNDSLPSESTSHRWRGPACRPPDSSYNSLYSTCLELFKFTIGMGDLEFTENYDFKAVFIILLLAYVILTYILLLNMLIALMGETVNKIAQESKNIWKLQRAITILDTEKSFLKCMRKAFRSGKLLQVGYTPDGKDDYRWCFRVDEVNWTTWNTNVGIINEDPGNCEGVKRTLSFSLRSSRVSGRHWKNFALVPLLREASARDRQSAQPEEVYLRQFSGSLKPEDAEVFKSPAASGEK
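Cells expressing TRPV1 were dye-loaded with Fluo-8 and read kinetically: 10 s baseline, 3 min after compound (agonist portion), then 2 min after EC20 capsaicin (allosteric enhancer portion). Calcium-bound dye fluorescence at 480/520 nm.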
TRPML1 inh: blocks the human TRPML1 channel; AID 624415; activity change, negative = inhibition, % (no concentration beside the values); TRPML1-inducible cells, Ca2+ dye fluorescence, FDSS; hits give low values; inhibition of EC80 agonist-evoked calcium signal; Q9GZU1; 0.02% of 390,000 active; in the data active means activity change below about -50%; inconclusive means about -30% to -50%; inactive means above about -30%;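 further: stimulus is agonist 54-4 at its EC80 concentration; on the % scale 0 is the no-effect control and ±100 the full control effect; compound concentration not given in the record; the text of the record puts the active cut at -80%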
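Tet-induced TRPML1-DL cells loaded with Ca8 no-wash calcium dye were read kinetically on FDSS. Compound addition was followed by EC80 agonist 54-4 (4 uM final); inhibition was read over 110 s.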
Menin MLL FP FL: displaces fluorescein MLL peptide from human menin | Fluorescence polarization, fluorescein-MLL peptide displacement from menin | FP activity change, % at 61.4 µM | 290,000 tested, under 10 active; inconclusive = falling polarisation curve, or a change in total fluorescence; inactive = total fluorescence flat and polarisation flat or rising; no compound was filed as active; the % refers to the polarisation; negative = inhibition;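 further: % of control where 0% means no effect; inhibitors lower the polarisation; unlabelled MLL peptide was the positive control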
Sfp inh: blocks B. subtilis Sfp PPTase activity; Q9F4F7; Biochemical Sfp PPTase activity, qHTS; Potency, µM, for inactives: max response, negative = inhibition, usual class: inhibitors; 3.5% of 310,000 active; AID 1490; active means well fitted inhibition curve with a large enough effect; inconclusive means small, poorly fitted or top-dose-only effect, or another doubt; inactive means no such curve, though single readings can be large or run the other way;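 further: the enzyme is Sfp with the accession as filed and its product quenches rhodamine fluorescence; potency means the concentration at half of the fitted maximal effect; 0% = enzyme reaction without inhibitor and -100% = no enzyme wells; top concentration of the series not given in the record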
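Reaction rates are the 30-min fluorescence difference (ex 525, em 598 nm) in wells containing 15 nM Sfp, 5 uM rhodamine-CoA and 12.5 uM BHQ-2-YbbR at pH 7.6 with 10 mM MgCl2.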
gsp antagonist: gsp mutant antagonism. Potency, µM (highest dose often 76.9 µM), for inactives: at the top dose activity change, negative = inhibition, hits mostly inhibitors. gsp-mutant cells, cAMP HTRF, 30 min; control for the full effect not named in the record. 0.4% of 340,000 active; active = falling curve of any shape with a large fitted effect; inconclusive = falling curve, mostly with a smaller effect; inactive = flat or rising curve; cell line not stated here;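 further: intracellular cAMP measured with PDE inhibitor Ro 20-1724 present during compound exposure; potency means the concentration at half of the fitted maximal effect; on the % scale 0 is the no-effect control and ±100 the full control effect; nearly all actives have a fitted effect of over 65% in size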
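Cells, 2000/well, grown 16–24 h in DMEM 10% FBS with 0.5 mg/ml G418, then compounds plus […] (300 uM addition stock), 30 min at 37C. cAMP read by HTRF (cAMP-d2 and anti-cAMP antibody-K in lysis buffer) after 30 min RT.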
ClpP mod: qHTS Assay for Activators of ClpP; Potency, µM (titrated, usually from 57.5 µM), for the others: top-dose activity change, negative = active; AID 651965, 2013; 1.9% of 340,000 active; purified B. subtilis ClpP, FRET peptide cleavage, 20 min; active = well fitted falling curve with a large enough effect; inconclusive = small, poorly fitted or top-dose-only effect; inactive = no such curve, though single readings can be large or run the other way; further: potency means the concentration at half of the fitted maximal effect; the source files actives as falling curves though it sought activators and does not explain the sign; nearly all actives have a fitted effect of over 65% in size; many hits overshoot -100%
Target sequence (P80244 whole entry, looked up): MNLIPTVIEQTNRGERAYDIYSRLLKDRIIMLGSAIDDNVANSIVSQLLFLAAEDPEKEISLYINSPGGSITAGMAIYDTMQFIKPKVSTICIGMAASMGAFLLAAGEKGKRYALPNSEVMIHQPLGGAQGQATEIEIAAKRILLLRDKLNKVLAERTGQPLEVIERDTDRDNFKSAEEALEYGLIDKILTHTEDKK
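FRET quenching reversal measured ClpP activation: 10 microg/mL B. subtilis ClpP at pH 8 with the FRET-FV decapeptide, read at 430 nm after 320 nm excitation. The 20-min minus 0-min signal was scaled between DMSO/no-enzyme wells and ADEP (5.8 microM final).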
* hit, by the source's call; ? = inconclusive; nt = no result given; [ ] = remark or other dose.

SMILES	gsp ag	TRPV1 PAM	TRPML1 inh	Menin MLL FP FL	Sfp inh	gsp antagonist	ClpP mod
COc1ccc2c(c1)O/C(=C\c1ccccc1O)C2=O	1%	nt	5	nt	nt	1%	7.6%
CC(NC(=O)c1ccc(-c2cc(C(F)(F)F)ccc2Cl)o1)c1ccccc1 (stereo not given)	?	-2	9	2.3	0%	12%	?
CC(C)(C)c1cnnn1-c1ccc([N+](=O)[O-])cc1	-4%[15.4 µM]	1	5	0.1	16%	-11%	1.1%
COc1cccc(COC(=O)C2CCN(S(=O)(=O)c3ccc(C)cc3)CC2)c1OC	5%[15.4 µM]	12	18	nt	nt	-3%	?
Cc1cc(C(=O)Nc2ccc3ccccc3c2)c(C)o1	-3%[15.4 µM]	-22	3	0.6	19%	-23%	nt
Cn1cnc([N+](=O)[O-])c1Sc1ccccc1	-28%	2	-9	-3.1	-9%	11%	0.1%
O=C(CCc1nnc(CCCCc2ccccc2)o1)NCc1cccc(F)c1	?	-5	-1	-3.3	10%	5%	nt
COc1ccc(C(=O)C2CCCN(S(=O)(=O)c3ccccc3F)C2)c(C)c1 (stereo not given)	-19%	9	34	nt	3%	?	-0.9%
Cc1ccc(C(=O)Oc2ccc(/C=C3\C(=N)N4N=C(N5CCOCC5)SC4=NC3=O)cc2)cc1	-42%[inhibitor]	-26	9	3.8	-23%	-4%	0.4%
CC(=O)NCCCc1nc2ccccc2n1Cc1c(F)cccc1Cl	0%	nt	2	1.7	5%	1%	nt
CCC(=O)NC(c1cccc([N+](=O)[O-])c1)c1c(OC(C)=O)ccc2ccccc12 (stereo not given)	-28%	-6	12	3.3	10%	-2%	28µM*
Cc1nn(Cc2ccc(Cl)cc2)c(Cl)c1/C=N/NC(=O)c1cccnc1	2%	14	12	4.2	0%	11%	nt
O=C(Nc1ccc(NC(=O)c2cccs2)cc1)c1ccco1	18%	3	6	0.0	-2%	2%	-6.1%
CCOC(=O)CNC(=O)N1CCCC(CCC(=O)NCc2ccc(F)c(F)c2)C1 (stereo not given)	-21%	1	-18	0.0	9%	-11%	nt
COc1ccc(CCNC(=O)CNS(=O)(=O)c2ccc(F)c(Cl)c2)cc1OC	16%	4	-2	0.9	5%	7%	-0.9%
CC(=O)Nc1cccc(C(=O)OCN2C(=O)c3ccccc3C2=O)c1	-5%	23	29	nt	7%	2%	-0.5%
c1ccc2c(c1)ccc1nnc(SCc3ccc4c(c3)OCCO4)n12	?	-8	27	0.1	2%	-1%	0.7%
O=C(Nc1ccc(Cl)c(-c2nc3ccccc3[nH]2)c1)c1ccc2c(c1)OCO2	-34%[inhibitor]	-22	-26	-1.1	1%	-3%	-15%
Cc1nn(-c2ccccc2)c(C)c1/C=N/N1CCN(c2ccccc2)CC1	40%	9	33	-0.1	3%	-29%	1.0%
Cc1ccc(/C=N/N=C2/NC(=O)C(CC(=O)Nc3ccccc3)S2)o1 (stereo not given)	-22%	7	1	1.7	-18%	9%	-0.9%
CCCCNC(=O)c1nn2cc(Br)cnc2c1Br	11%[15.4 µM]	-2	9	-1.4	-4%	7%	nt
COc1ccc(-c2nc(N)ncc2-c2ccccc2)c(O)c1	46%	19	nt	2.9	15%	4%	-1.6%
CCN(C(=S)NC(=O)C1CCCC1)C1CCCCC1	12%[15.4 µM]	-2	-8	1.6	9%	-10%	nt
COc1cccc(CNC(=O)COC(=O)CN2C(=O)NC3(CCCCC3C)C2=O)c1 (stereo not given)	8%	-2	-7	nt	nt	10%	0.0%

Four neighbouring compounds already listed, quoted:
SMILES	gsp ag	TRPV1 PAM	TRPML1 inh	Menin MLL FP FL	Sfp inh	gsp antagonist	ClpP mod
CCCCNC(=O)c1nn2cc(Br)cnc2c1Br	11%[15.4 µM]	-2	9	-1.4	-4%	7%	nt
COc1ccc(-c2nc(N)ncc2-c2ccccc2)c(O)c1	46%	19	nt	2.9	15%	4%	-1.6%
CCN(C(=S)NC(=O)C1CCCC1)C1CCCCC1	12%[15.4 µM]	-2	-8	1.6	9%	-10%	nt
COc1cccc(CNC(=O)COC(=O)CN2C(=O)NC3(CCCCC3C)C2=O)c1 (stereo not given)	8%	-2	-7	nt	nt	10%	0.0%

Following part:
SMILES	gsp ag	TRPV1 PAM	TRPML1 inh	Menin MLL FP FL	Sfp inh	gsp antagonist	ClpP mod
COC(C/C=C\[C@H](O)COCc1ccccc1)OC	30%	nt	-2	nt	nt	10%	2.5%
O=C(COC(=O)CCc1nc2ccccc2c(=O)[nH]1)Nc1ccc(N2CCOCC2)cc1	-11%[15.4 µM]	0	-13	5.6	4%	8%	nt
CCOC(=O)CC1(CC(=O)OCC)NC(=O)c2c(C)sc(C(=O)OCC)c2N1	9%	21	32	1.2	5%	4%	35µM*
Cc1cc(C)cc(-n2cc[nH]c2=S)c1	-40%[inhibitor]	-4	-19	4.6	16%	18%	1.8%
Fc1ccc(-c2ccc(Nc3cccc(F)c3)nn2)cc1	-16%	-4	4	-6.7	6%	1%	-3.0%
CC[C@]12c3[nH]c4ccc(Cl)cc4c3CCN1C(=O)[C@@H](CC(=O)NC(C)(C)C)C[C@@H]2C(=O)N1CCN(C(=O)c2ccco2)CC1	nt	nt	9	nt	nt	-10%	-3.6%
N#C/C(=C\c1ccc(F)cc1)c1nc(-c2ccco2)cs1	-21%	20	-15	?	-20%	2%	0.7%
COCCN(CCNC(=O)c1ccc(NC2=NC3CS(=O)(=O)CC3S2)cc1)Cc1ccco1 (stereo not given)	-23%	1	20	2.3	28%	11%	0.0%
Cn1nc(-c2ccc(OCC(N)=O)cc2)c2ccccc2c1=O	-65%[inhibitor]	0	-2	0.2	-1%	2%	-8.8%
CCN(CC)S(=O)(=O)c1ccc2oc(C(=O)NC3CC3)c(C)c2c1	6%	2	10	-6.1	2%	4%	nt
Cc1c(-c2ccccc2)sc(N)c1C(=O)N1CCOCC1	-11%	3	-4	2.7	45µM*	-8%	-4.5%
CCOC(=O)N1CCN(C(=O)CN2C(=O)NC(c3ccccc3)(c3ccccc3)C2=O)CC1	1%	3	-16	nt	1%	2%	nt
O=C(O)c1ccc2c(c1)N(Cc1ccc(F)cc1)C(=O)c1ccccc1S2	0%	4	-4	3.6	-4%	4%	3.6%
COC(=O)CN(n1cnnc1)S(=O)(=O)c1ccccc1	-28%	29	-5	-0.1	8%	12%	0.8%
COc1ccc(CNC(=O)COC(=O)c2ccc(F)c(S(=O)(=O)N3CCOCC3)c2)cc1	-2%	nt	-3	nt	nt	9%	4.1%
Cc1ccc2oc(C(=O)Nc3ccc(S(=O)(=O)Nc4onc(C)c4C)cc3)c(C)c2c1	-31%[inhibitor]	4	33	3.6	14%	?	0.8%
CCOC(=O)CSc1n[nH]c(NS(=O)(=O)c2ccccc2C(F)(F)F)n1	6%	-1	-1	-3.7	7%	5%	nt
COc1cccc(/C=N/n2c(-c3n[nH]c4c3CCC4)n[nH]c2=S)c1OC	-1%[15.4 µM]	nt	4	5.2	?	-10%	nt
Cc1c(Cl)c(-c2n[nH]c(=S)n2CC(C)C)nn1C	-34%	3	15	3.0	-11%	-3%	0.8%
O=C1CC(c2ccncc2)c2cc3c(cc2N1)OCCO3 (stereo not given)	?	-2	10	1.4	19%	6%	0.7%
NC(N)=NS(=O)(=O)c1ccc(N/C=C\C(=O)c2ccncc2)cc1	-1%	2	-11	-25	-3%	13%	nt
Cc1ccc(N2CC(C(=O)N3CCCCC3)CC2=O)cc1C (stereo not given)	?	-14	1	nt	16%	1%	-1.0%
COC(=O)c1ccccc1NC(=O)C1CC(=O)N(C2CCCCC2)C1 (stereo not given)	9%	-4	6	-0.6	4%	-3%	-23%
Clc1ccc(SCCOCCN2CCCCC2)cc1	-82%	5	1	5.7	56µM*	11%	0.2%
COCCCNC(=O)c1sc2ncn(CC(=O)Nc3ccc(C)c(Cl)c3)c(=O)c2c1C	6%	10	14	-0.4	6%	-15%	nt
COc1cccc(NC(=O)CN(C)C(=O)c2cc(C)oc2C)c1	-25%	5	-30	nt	nt	6%	-0.5%
Cc1ccccc1C(=O)Nc1cccc(C#N)c1	?	19	19	-1.9	5%	10%	0.8%
COC(CNC(=O)c1ccc2c(c1)ncn2-c1ccc(F)cc1F)OC	-7%	?	4	7.3	-15%	7%	nt
CC(=O)c1ccc(NC(=O)CN2C(=O)/C(=C/C(C)=C/c3ccccc3)SC2=S)cc1	-24%	-2	-6	4.4	2%	0%	2.9%
CCCCn1c(N)c(N(CC(C)C)C(=O)C2CCN(S(=O)(=O)c3ccc(C)cc3C)CC2)c(=O)[nH]c1=O	6%[15.4 µM]	2	-6	nt	nt	0%	-2.2%
COc1ccc(CCNC(=O)c2ccc(NC(=O)CC3SC(N4CCCC4)=NC3=O)cc2)cc1 (stereo not given)	-3%[15.4 µM]	-4	16	nt	nt	-15%	-1.9%
Cc1cc(NC(=O)CN2CC(C)OC(C)C2)n(-c2nc3ccccc3s2)n1 (stereo not given)	-6%	-3	6	1.1	-11%	-2%	-1.6%
CN(C)C1(CN=Cc2cc(Cl)cc([N+](=O)[O-])c2O)CCCCC1	-71%[inhibitor]	-1	-16	33[activator]	12%	-15%	nt
CCCCn1c(N)c(N(CC(C)C)C(=O)c2ccc(S(=O)(=O)N3CCCCCC3)cc2)c(=O)[nH]c1=O	0%	-18	16	nt	nt	-2%	-0.4%
COc1cccc(-c2nc(Oc3cccc(C)c3C)c3ccccc3n2)c1O	29%	-1	-1	2.0	0%	13%	0.9%
COc1ccc(-c2csc(Cc3nc(O)cs3)n2)cc1	-13%[15.4 µM]	4	6	13	-24%	-18%	nt
CCC(=O)Nc1ccc(C(=O)CN2C(=O)NC3(CCCCCC3)C2=O)cc1	10%	10	-6	nt	nt	6%	0.5%
COc1ccc(S(=O)(=O)N2CCCC(C(=O)NCc3ccccc3)C2)cc1 (stereo not given)	0%[15.4 µM]	1	2	nt	13%	-8%	nt
COc1ccccc1Oc1ccc(S(=O)(=O)N2CCCCC2C)cc1 (stereo not given)	-9%	-7	47	3.6	-2%	-17%	nt
CC(C(=O)NCc1ccccc1Cl)N1C(=O)c2ccccc2C1=O (stereo not given)	28%	-3	8	nt	7%	0%	nt
